H5N1 antiviral = MDCK cell protection from H5N1 avian flu | cytopathic effect, luminescence, 72 h; stronger effect = higher value; no value below 0 was filed and about half of the inactive calls have no number; reference of the scale not given here | inhibition, % at 50 µM | 96,000 compounds, 0.07% hits | AID 740, 2007; in the data active = inhibition above about 25%
An asterisk follows results filed as active; i = inactive. Only part of the results is shown. The share of hits here may be higher or lower than overall.

SMILES	H5N1 antiviral
CCn1c(C)c2c([n+]1CC)CC(C)(C)CC2=O	0.4
Cc1csc2nc(CNS(=O)(=O)c3ccc(-c4ccccc4)cc3)cn12	5.2
O=C(/C=C/Nc1ccccc1)c1ccc(Oc2ncccn2)cc1	i
O=C(C1CCN(S(=O)(=O)c2ccc3ccccc3c2)CC1)N1CCN(c2ncccn2)CC1	i
CSc1nn(CCc2ccncc2)c(=S)s1	1.1
CC(C)CN(/C=N/c1sc2c(c1C#N)CCCCC2)CC(C)C	1.8
CNC(=O)c1sccc1S(=O)(=O)Cc1c(Cl)cccc1Cl	1.4
CCS(=O)CCSc1nc2ccccc2s1 (stereo unspecified)	i
COC(=O)[C@@H](NC(=O)Nc1ccc2c(c1)OCCO2)C(C)C	0.8
FC(F)(F)c1cc(NCc2cccs2)n2ncnc2n1	0.1
CCCc1cc(C(=O)NCc2ccco2)no1	0.5
CCCCCCn1c(SCCN2CCOCC2)nc2c1c(=O)[nH]c(=O)n2C	1.8
CCOC(=O)c1c(NC(=S)NC(=O)c2cnn(CC)c2)sc2c1CCC(C)C2 (stereo unspecified)	i
C=CCN=C1CC(C)(C)CC(=O)/C1=C(/O)CCC(=O)OC	0.7
O=C(Nc1nc(-c2ccc(S(=O)(=O)N3CCCCCC3)cc2)cs1)c1ccccc1	1.2
CCN1CCN(CC(=O)Nc2ccc(C)cc2C)C(=O)C1=O	1.5
CNC(=O)CSCc1cnn(-c2ccccc2)c1-n1cccc1	1.4
COc1ccc(CCNC(=O)CSc2nc(C)nc3c2oc2ccccc23)cc1OC	1.6
Cc1ccc(OCC(=O)N2CCN(c3ccc([N+](=O)[O-])c(N4CCOCC4)c3)CC2)cc1	i
CC(=O)C(Sc1ccc2nnc(-c3ccncc3)n2n1)C(C)=O	2.2
Cc1oc2ccc(OCC(N)=O)cc2c1C(=O)OC(C)C	6.3
COc1ccc(NC(=O)Cn2cnc3c(cnn3-c3ccc(C)c(C)c3)c2=O)c(OC)c1	i
CCCCC(=O)Nc1nnc(SCC(=O)NC2CCCC2)s1	i
CCCNC(=O)CCC(NS(=O)(=O)c1ccc(C)cc1)C(=O)NCCC (stereo unspecified)	i
NC(=O)c1cn(-c2ccccc2)nc1-c1cc2ccccc2oc1=O	0.8
O=C(CN1C(=O)NC2(CCc3ccccc32)C1=O)c1ccc2c(c1)OCCO2 (stereo unspecified)	i
CCc1ccc(N(CC(=O)Nc2nc3ccc(C)cc3s2)S(=O)(=O)c2c(C)noc2C)cc1	i
CC(=O)Nc1ccc(S(=O)(=O)N2CCN(C(=O)c3cccnc3)CC2)cc1	2.1
CCOC(=O)C1CCN(C(=O)COc2ccc(Cl)cc2)CC1	i
CC1CCCC(NC(=O)COC(=O)c2ccc(N(C)C)cc2)C1C (stereo unspecified)	1.2

Grouped by structure: the compounds so far containing a thiophene ring, fused or not (4)
SMILES	H5N1 antiviral
CC(C)CN(/C=N/c1sc2c(c1C#N)CCCCC2)CC(C)C	1.8
CNC(=O)c1sccc1S(=O)(=O)Cc1c(Cl)cccc1Cl	1.4
FC(F)(F)c1cc(NCc2cccs2)n2ncnc2n1	0.1
CCOC(=O)c1c(NC(=S)NC(=O)c2cnn(CC)c2)sc2c1CCC(C)C2 (stereo unspecified)	i

Following part.
SMILES	H5N1 antiviral
COC(=O)C1=C(C)NC(=O)C1(NC(=O)c1cccnc1)C(F)(F)F (stereo unspecified)	i
COc1cc(OC)c(-c2nnc(-c3ccc(OC)c(OC)c3OC)o2)cc1OC	i
CCOC(=O)CSc1nc2ccc(S(=O)(=O)N3CCOCC3)cc2[nH]1	0.5
CC(C)OP(=O)(OC(C)C)C(NC(=O)c1ccc(Br)cc1)c1ccccc1 (stereo unspecified)	i
CCn1cc(SCC(N)=O)c2ccccc21	1.2
O=C(CSc1nncn1-c1ccccc1)NCc1cccs1	0.4
CC(C)(C)NC(=O)C(Cc1ccccc1)NS(=O)(=O)c1cccc2nsnc12 (stereo unspecified)	i
O=C(NCCc1ccccc1)C1CCCN(S(=O)(=O)c2cnc[nH]2)C1 (stereo unspecified)	i
CCCCNC(=O)CCNS(=O)(=O)c1ccc(Br)cc1	0.6
O=C(CSc1nnc(-c2cccnc2)n1CCc1ccccc1)N1CCCCC1	1.4
CC(=O)Nc1cccc(NC(=O)CCCC(=O)O)c1	i
O=C(COc1ccc(Br)cc1)Nc1ccc(-c2nnc(-c3ccco3)o2)cc1	i
CCOC(=O)CNC(=O)c1sc2ncnc(N3CCc4ccccc4C3)c2c1C	i
C=CCn1c(=O)c2ccccc2n2c(SCc3nc4ccccc4s3)nnc12	1.1
Cc1ccc2cccc(O)c2[n+]1[O-]	i
Cc1ccc(N2CC(C(=O)Nc3ccc(S(=O)(=O)N4CCOCC4)cc3)CC2=O)cc1 (stereo unspecified)	0.2
COc1ccc(/C=C/C(=O)c2ccc3c(c2)OCCO3)cc1[N+](=O)[O-]	5.1
Nc1nnc(-c2ccccc2)s1	0.1
O=C1CCCN1CCCNc1ccc(S(=O)(=O)N2CCCCC2)cn1	0.1
CCCn1c(CN2CCN(c3cccc(Cl)c3)CC2)nc2c1c(=O)n(C)c(=O)n2C	1.5
Cn1c(SCC(=O)NCc2cccs2)nnc1-c1ccncc1	1.4
COc1ccccc1Nc1ccc(C(=O)NC2CCCCC2)cn1	i
CN(C)c1nc(N)nc(CSc2nc3cc(Cl)ccc3o2)n1	i
CC1(C)Cc2ccccc2-c2nnc(-c3ccccn3)n21	0.2
O=C(Nc1ccc(F)cc1)N1CC2CC(C1)c1cccc(=O)n1C2 (stereo unspecified)	i
Cc1ccc(-n2c(SCC(=O)Nc3ccc4c(c3)OCO4)nnc2-c2ccccn2)cc1	i
O=C(NCCc1c[nH]c2ccccc12)c1ccc(S(=O)(=O)NCc2ccco2)cc1	0.5
c1ccc(-c2nc3ccccc3o2)nc1	1.2
CC1=C(NCCc2ccccc2)CCC1=O	0.6
COc1ccc(-c2nnc(SCC(=O)N3CCCc4ccccc43)o2)cc1OC	0.1

Gathered by group, the compounds so far with a furan ring, fused or not.
SMILES	H5N1 antiviral
CCCc1cc(C(=O)NCc2ccco2)no1	0.5
COc1ccc(CCNC(=O)CSc2nc(C)nc3c2oc2ccccc23)cc1OC	1.6
Cc1oc2ccc(OCC(N)=O)cc2c1C(=O)OC(C)C	6.3
O=C(COc1ccc(Br)cc1)Nc1ccc(-c2nnc(-c3ccco3)o2)cc1	i
O=C(NCCc1c[nH]c2ccccc12)c1ccc(S(=O)(=O)NCc2ccco2)cc1	0.5

Other results follow.
SMILES	H5N1 antiviral
CN(c1ccccc1)C(c1ccc(F)cc1)c1nnnn1CC1CCCO1 (stereo unspecified)	1.5
CCn1c(=O)c(C(=O)CN2CC(C)OC(C)C2)c(N)n(Cc2ccccc2)c1=O (stereo unspecified)	i
COc1ccccc1/C=C/C(=O)N1CCOCC1	i
O=C(O)CSc1nnc(-c2ccccc2)o1	1.0
COc1ccc(NC(=O)C2CCCNC2)cc1OCC(C)C (stereo unspecified)	i
CN1CC2CCCC3(C1)C(=O)NC1(CCCCC1)N=C23 (stereo unspecified)	i
COc1ccc(-n2nnc3c(SCC(=O)NCC4CCCO4)ncnc32)cc1 (stereo unspecified)	3.3
CCc1ccc(NC(=O)COC(=O)CN2C(=O)COc3ccccc32)cc1	0.2
CC1=Nn2c(nnc2-c2ccccc2F)SC1	1.2
Cc1c(Br)c([N+](=O)[O-])nn1C(C)C(=O)Nc1nccs1 (stereo unspecified)	0.5
CC(/C=C/c1ccc2c(c1)OCO2)=N\NC(=O)COc1ccccc1C	i
Fc1cccc(NC(=S)Nc2ccc(Br)cc2)c1	7.1
O=C(OCc1ccc(F)cc1Cl)c1ccccn1	1.5
O=C(Nc1ccc(OC(=O)c2ccccc2)c(-c2nc3ccccc3s2)c1)c1ccccc1	i
Cc1ccc(-n2c(=O)cc(N3CCCCCC3)[nH]c2=O)cc1	i
Cc1ccc(F)cc1NC(=O)c1c(-c2ccccc2)noc1C	1.0
CC(C)OP(C)(=O)CN1CCN(CP(C)(=O)OC(C)C)CC1 (stereo unspecified)	i
CC(O)Cn1ccccc1=N (stereo unspecified)	i
CCOC(=O)c1cccc(N2C(N)=NC(N)=NC2(C)C)c1	i
COc1ccc(CCN(C)Cc2ccc(OCc3ccccc3)c(OC)c2)cc1OC	i
O=C1CC(N2CCN(c3cccc(C(F)(F)F)c3)CC2)C(=O)N1c1ccccc1F (stereo unspecified)	i
CNc1oc(Cc2ccccc2)nc1S(=O)(=O)c1ccccc1	i
COC(=O)C1=C(N)Oc2cc(C)oc(=O)c2C1c1cccnc1 (stereo unspecified)	0.9
COCC(=O)Nc1ccccc1C(=O)NC(C)C	i
Cc1ccc(-n2c(=O)[nH]cc(C(=O)N3CCc4ccccc43)c2=O)cc1	i
CCCCCC(O)CCc1n[nH]c(=S)n1-c1ccccc1 (stereo unspecified)	i
COc1ccccc1OCCNC1CCCC1	i
C=C(C)c1cccc(C(C)(C)NC(=O)Nc2ccc3[nH]c(=O)[nH]c3c2)c1	1.0
CCCCCCc1nc2ccccc2c(=O)n1N	i
CCCS(=O)(=O)N1CCN(S(=O)(=O)c2ccc(F)cc2)CC1	i
COC(=O)c1cccc(NC(=S)NCc2ccc(Cl)cc2)c1	i
COc1ccccc1C=NC(CO)C(O)c1ccc([N+](=O)[O-])cc1 (stereo unspecified)	0.3
CC(C)(C)C1CCc2c(sc(NC(=O)c3cccs3)c2C(=O)N2CCCCC2)C1 (stereo unspecified)	i
CCn1c(SCC(=O)Nc2cc(OC)c(OC)c(OC)c2)nnc1-c1cccs1	0.2
COCCNC(=O)CN(Cc1ccc2c(c1)OCO2)C(=O)CCC(=O)Nc1nccs1	0.4
O=C(NCc1cccs1)c1ccc2c(c1)OCCO2	i
Cc1cc(=O)[nH]c(SCC(=O)N2CCc3ccccc3C2)n1	i
N#Cc1cnn(-c2nc(SCc3ccccc3)nc3sc4c(c23)CCCC4)c1N	i
COC(=O)C1CCN(c2nc3ccccc3nc2C(C#N)C(=O)OCC(C)C)CC1 (stereo unspecified)	i
Cc1ccc(-n2c(C)c3c(C)nnc(C)c3c2C)cc1C	3.1

The closing five compounds of the section above are carried over, then new ones follow:
SMILES	H5N1 antiviral
O=C(NCc1cccs1)c1ccc2c(c1)OCCO2	i
Cc1cc(=O)[nH]c(SCC(=O)N2CCc3ccccc3C2)n1	i
N#Cc1cnn(-c2nc(SCc3ccccc3)nc3sc4c(c23)CCCC4)c1N	i
COC(=O)C1CCN(c2nc3ccccc3nc2C(C#N)C(=O)OCC(C)C)CC1 (stereo unspecified)	i
Cc1ccc(-n2c(C)c3c(C)nnc(C)c3c2C)cc1C	3.1
COc1ccc(CNC(=O)C(c2ccncc2)N(C(=O)Cc2cccs2)c2ccc(C)cc2)cc1 (stereo unspecified)	1.2
CCC(C(=O)OC)n1cnc2c(nnn2-c2ccc(OC)cc2)c1=O (stereo unspecified)	i
CCOC(=O)c1cc(-c2ccc(F)cc2)n(CC(=O)N2CCCC2)c1C	0.6
c1ccc2oc(NC3=NCN(CC4CCCO4)CN3)nc2c1 (stereo unspecified)	0.1
Cc1ccc(C(=O)NCC(C)(C)N2CCOCC2)s1	0.5
CCOC(=O)C1C(=O)C=C(/C=C/c2ccccc2)CC1c1ccc(Cl)cc1 (stereo unspecified)	i
CCOc1ccc(OCCN(C)Cc2ccccc2)cc1	0.3
CCSc1nnc(-c2ccc(S(=O)(=O)N3CCOCC3)cc2)n1CC1CCCO1 (stereo unspecified)	i
COC(=O)C1C(=O)c2c([nH]c(C(=O)OCCSC)c2C)CC1C (stereo unspecified)	1.7
CCOC(=O)Nc1ccc(NC(=O)c2c(OC)cccc2OC)cc1	i
COc1nc(-c2ccccc2)ccc1-c1noc(-c2ccccc2F)n1	0.6
O=Cc1ccc(N2CCCC2)c(F)c1	i
COc1ccc(/C=C/c2c([N+](=O)[O-])c(=O)n(C)c(=O)n2C)cc1OC	0.7
CCN(CC(=O)Nc1cccc(Br)c1)Cc1nc2ccccc2c(=O)[nH]1	i
Fc1ccc(-n2nnnc2-c2cnc(-c3cccs3)nc2C(F)(F)F)cc1	i
CCOc1ccc(-n2c(SCC(=O)NCc3ccco3)nc3c(c2=O)SCC3)cc1	0.8
CCC(NC(=O)NC1=NCCS1)(C(F)(F)F)C(F)(F)F	i
C1=Nc2c(NCc3ccccc3)ncnc2Oc2ccccc21	i
Cc1sc2ncnc(SCc3ccco3)c2c1C	2.9
Cc1ccccc1-c1nc2sc3c(c2c(=O)n1N)CCCC3	i
c1cncc(-c2nc3cc4ccccc4cc3[nH]2)c1	i
C=CCc1cccc(/C=N/c2ncccc2O)c1O	i
CCOC(=O)c1cnc2nc(C(F)(F)F)[nH]n2c1=O	0.1
Cc1nn(C(C)CC(=O)O)c(C)c1Br (stereo unspecified)	0.2
O=C(c1ccco1)N1CCN(S(=O)(=O)c2ccc(F)cc2)CC1	0.5
C=CCOc1cccc(C2/C(=C(/O)c3ccccc3)C(=O)C(=O)N2CCN2CCOCC2)c1 (stereo unspecified)	0.8
CCn1c(-c2cc(-c3cccc(OC)c3)nc3ccccc23)n[nH]c1=S	0.8
COc1ccc(C(=O)Cn2c3ccccc3n3nc(CCC(=O)O)c(=O)nc23)cc1OC	0.4
COc1ccc(S(=O)(=O)N2CCN(C(=O)c3cccc(Cl)c3)CC2)cc1	6.5
O=C(CSc1nc2ccccc2c(=O)n1NC(=O)Cc1ccccc1)NCc1ccccc1Cl	i
O=C(Oc1ccc(Cl)cc1N1C(=O)CCC1=O)c1ccco1	0.1
CCCCSc1nnc(C)c(=O)[nH]1	0.4
CCOc1c(OC)cccc1C1CC(=O)Nc2cc(OC)c(OC)cc21 (stereo unspecified)	i
CCc1ccc2c(c1)cc(CN(C(=S)Nc1ccccc1Cl)C1CC1)c1nnnn12	0.6
Cc1ccnc(SCC(=O)N2CCN(C(c3ccccc3)c3ccccc3)CC2)n1	0.5
Cc1cc(C)n(-c2ccc(N3CCOCC3)nn2)n1	0.4
CCn1c(=O)cc(OCC(=O)NC2CCCCC2)c2ccccc21	i
COc1ccc(N=Cc2ccc[nH]2)cc1	i

High-throughput results from PubChem BioAssay.
